Compound activity: PubChem, Broad Institute
Env fusion inh: blocks HIV Env-driven cell-cell fusion; HeLa-JRFL Env/CEM21 cell fusion, luciferase; inhibition, % at 12.3 µM; 360,000 compounds, 1.1% hits; AID 651610;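 active = mean replicate inhibition score of at least 50 and every replicate individually at or above 50; inconclusive = only one of the two criteria met; inactive = mean below 50 and not all replicates reaching 50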;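 note: 0% = plate neutral controls and 100% = maraviroc near 300 nM; one replicate is shown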
Yeast UUG start: modulators of start codon recognition fidelity in yeast. S. cerevisiae UUG-firefly luciferase reporter, luminescence/redox ratio. AID 602363. activity score, % at 18.7 µM. 350,000 compounds, 0.13% hits;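 active = replicate mean at a twofold rise or more, about +100% in these data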;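 note: firefly luciferase made from a UUG start codon reports start codon fidelity; reporter light over untreated wells divided by growth signal over untreated wells; some hits fall short of that in this replicate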
* marks the source's active call; other numbers are inactive results; ? = inconclusive; [ ] = dose if it differs, or a comment. Some of the compounds tested; the hit share may differ from the screen's.

SMILES	Env fusion inh	Yeast UUG start
C[C@@H]1CN([C@@H](C)CO)C(=O)c2cc(NS(=O)(=O)c3cccs3)ccc2O[C@@H](C)CCCCO[C@H]1CN(C)C(=O)Nc1cccc2ccccc12	10.7[16.7 µM]	-4.3
C[C@@H]1CCCCO[C@@H](CN(C)S(=O)(=O)c2cccs2)[C@@H](C)CN([C@H](C)CO)C(=O)c2cc(NC(=O)NC3CCCCC3)ccc2O1	6.4[16.7 µM]	-13.6
COc1ccc(C#Cc2ccc3c(c2)O[C@H](CN(C)C(=O)c2ccccn2)[C@@H](C)CN([C@@H](C)CO)S3(=O)=O)cc1	22.0[16.7 µM]	7.4
COc1ccc(S(=O)(=O)Nc2ccc3c(c2)C(=O)N([C@@H](C)CO)C[C@H](C)[C@H](CN(C)C(=O)Nc2ccccc2)OCCCC[C@H](C)O3)cc1	-78.7[16.7 µM]	21.5
C[C@H](CO)N1C[C@H](C)[C@H](CN(C)C(=O)Nc2ccccc2)Oc2ncccc2C1=O	5.4[16.7 µM]	-5.9
COc1ccc(NC(=O)N(C)C[C@H]2OCCCC[C@H](C)Oc3ccc(NC(=O)CCC(F)(F)F)cc3C(=O)N([C@@H](C)CO)C[C@H]2C)cc1	-7.8[16.7 µM]	24.8
C[C@@H]1CN([C@H](C)CO)S(=O)(=O)c2ccc(C#C[C@@H](C)O)cc2O[C@@H]1CN(C)Cc1cccnc1	-25.8[16.7 µM]	0.2
C[C@@H]1CN([C@H](C)CO)C(=O)c2cc(C#Cc3ccc(F)cc3)cnc2O[C@H]1CN(C)C	-8.9[16.7 µM]	-0.8
COc1cccc(NC(=O)N(C)C[C@@H]2Oc3ncc(C4=CCCCC4)cc3C(=O)N([C@@H](C)CO)C[C@H]2C)c1	-52.7[16.7 µM]	7.2
C[C@@H]1CN([C@@H](C)CO)C(=O)c2cccc(N(C)C)c2O[C@@H]1CN(C)S(=O)(=O)c1cn(C)cn1	-5.4[16.7 µM]	-10.2
COc1ccc(S(=O)(=O)Nc2ccc3c(c2)CC(=O)N([C@@H](C)CO)C[C@H](C)[C@H](CN(C)S(=O)(=O)c2cccs2)O3)cc1	80.0*[16.7 µM]	14.2
COCC(=O)N(C)C[C@H]1Oc2ncc(C3=CCCC3)cc2C(=O)N([C@@H](C)CO)C[C@@H]1C	-9.1[16.7 µM]	-3.9
COc1ccc(CNC(=O)C[C@@H]2CC[C@H](NC(=O)c3ccc4c(c3)OCO4)[C@H](CO)O2)cc1	-2.4[16.7 µM]	-5.4
C[C@@H]1CN([C@@H](C)CO)C(=O)c2cc(C#Cc3ccccc3F)cnc2O[C@H]1CN(C)C(=O)Cc1cccnc1	5.5[16.7 µM]	-14.3
C[C@H](CO)N1C[C@H](C)[C@@H](CN(C)C(=O)c2ccccc2F)Oc2ncc(-c3cncnc3)cc2C1=O	-14.9[16.7 µM]	3.2
CN1C(=O)c2cc(NC(=O)Nc3cccc(Cl)c3)ccc2OC[C@@H]2O[C@@H](CC(=O)O)CC[C@@H]21	-9.0[16.7 µM]	17.6
C[C@H]1CN([C@@H](C)CO)C(=O)Cc2cc(NC(=O)CCCN(C)C)ccc2O[C@@H]1CN(C)S(=O)(=O)c1cccs1	9.4[16.7 µM]	13.5
C[C@@H]1CCCCO[C@@H](CN(C)C(=O)c2ccncc2)[C@@H](C)CN([C@H](C)CO)C(=O)c2cc(NC(=O)CCCCCC(=O)Nc3ccccc3N)ccc2O1	-1.4[16.7 µM]	-3.4
C[C@@H]1CN([C@@H](C)CO)C(=O)Cc2cc(NC(=O)C3CC3)ccc2O[C@H]1CN(C)Cc1ccc(C(=O)Nc2ccccc2N)cc1	23.6[16.7 µM]	-9.3
O=C(C[C@@H]1CC[C@H](NC(=O)Nc2ccc3c(c2)OCO3)[C@H](CO)O1)NCc1ccc2c(c1)OCO2	-8.7[16.7 µM]	-2.0
CC(=O)N(C)C[C@@H]1Oc2cc(Br)ccc2S(=O)(=O)N([C@@H](C)CO)C[C@H]1C	-20.4[16.7 µM]	5.9
C[C@H]1CN([C@@H](C)CO)C(=O)c2cccc(NC(=O)c3ccc(-c4nccs4)cc3)c2O[C@@H]1CN(C)S(=O)(=O)c1ccc(Cl)cc1	-68.1[16.7 µM]	3.6
N#C[C@@H]1[C@H](c2ccc(C#CC3CCCC3)cc2)[C@@H](CO)N1S(=O)(=O)c1ccccc1	0.6[16.7 µM]	-16.5
C[C@H]1CN([C@@H](C)CO)C(=O)c2cc(-c3cccnc3)cnc2O[C@@H]1CN(C)C(=O)c1ccccc1F	1.3[16.7 µM]	-15.7
CC(C)NC(=O)N(C)C[C@H]1Oc2ccc(NC(=O)C3CC3)cc2C(=O)N([C@@H](C)CO)C[C@@H]1C	18.8[16.7 µM]	-6.3
C[C@H]1CN([C@@H](C)CO)C(=O)Cc2cc(NC(=O)Cn3cnnn3)ccc2O[C@H]1CN(C)C(=O)Nc1ccc(C(F)(F)F)cc1	-0.8[16.7 µM]	-1.5
C[C@H](CO)N1C[C@H](C)[C@H](CN(C)C(=O)Cc2ccccn2)Oc2ncc(-c3ccccc3)cc2C1=O	-16.4[16.7 µM]	-16.5
COc1ccc(NC(=O)Nc2ccc3c(c2)C(=O)N([C@H](C)CO)C[C@H](C)[C@H](CN(C)C(=O)Nc2c(C)noc2C)OCCCC[C@H](C)O3)cc1	6.9[16.7 µM]	-18.5
C[C@H](NC(=O)C[C@@H]1CC[C@@H](NC(=O)Cc2ccccn2)[C@@H](CO)O1)c1ccccc1	-162.1[16.7 µM]	-18.3
CCC(=O)N1C[C@H](C)[C@@H](OC)CN(C)C(=O)c2cc(NC(=O)c3cnccn3)ccc2OC[C@H]1C	15.8[16.7 µM]	7.0
COc1cccc(S(=O)(=O)Nc2ccc3c(c2)C(=O)N(C)[C@H]2CC[C@H](CC(=O)O)O[C@H]2CO3)c1	-14.1[16.7 µM]	7.1
Cc1noc(C)c1NC(=O)Nc1ccc2c(c1)CC(=O)N([C@@H](C)CO)C[C@H](C)[C@H](CN(C)Cc1ccc3c(c1)OCO3)O2	-35.6[16.7 µM]	-1.4
C[C@@H]1CN([C@H](C)CO)C(=O)c2cccc(NC(=O)Nc3ccccc3)c2O[C@@H]1CN(C)Cc1ccc(C(F)(F)F)cc1	-42.7[16.7 µM]	3.9
C[C@H](CO)N1C[C@H](C)[C@@H](CN(C)C)Oc2ncc(-c3ccncc3)cc2C1=O	-4.9[16.7 µM]	-3.0
C[C@@H]1CN([C@@H](C)CO)C(=O)c2cc(N(C)C)ccc2O[C@@H]1CN(C)C(=O)Nc1ccc(F)cc1	4.1[16.7 µM]	7.8
CN(C)C(=O)C[C@@H]1CC[C@@H]2[C@H](COC[C@H](O)CN2CC2CCCCC2)O1	1.7[16.7 µM]	-9.4
CN1CCN(C(=O)C[C@H]2C[C@@H]3c4cc(NC(=O)Nc5ccc(C(F)(F)F)cc5)ccc4O[C@@H]3[C@@H](CO)O2)CC1	18.2[16.7 µM]	6.8
C[C@H]1CN([C@@H](C)CO)C(=O)c2cc(NC(=O)Cc3ccccc3)ccc2O[C@H]1CN(C)Cc1ccc(C(=O)Nc2ccccc2N)cc1	-5.1[16.7 µM]	5.8
C=CCN1C(=O)[C@@]2(O[C@@H](CCO)[C@H]([Si](C)(C)c3ccc(OC)cc3)[C@H]2C)c2cc(NC(C)=O)ccc21	-4.4[16.7 µM]	99.8
Cc1ccc(S(=O)(=O)Nc2ccc3c(c2)C(=O)N([C@@H](C)CO)C[C@@H](C)[C@H](CN(C)Cc2ccc(C(=O)O)cc2)OCCCC[C@H](C)O3)cc1	22.7[16.7 µM]	0.9
COc1ccc(CN(C)C[C@@H]2Oc3ccc(NC(=O)Nc4ccc(C(F)(F)F)cc4)cc3C(=O)N([C@H](C)CO)C[C@@H]2C)cc1	6.6[16.7 µM]	9.7
C[C@@H]1CCCCO[C@@H](CN(C)Cc2ccc(C(=O)O)cc2)[C@@H](C)CN([C@@H](C)CO)C(=O)c2cc(NS(C)(=O)=O)ccc2O1	0.8[16.7 µM]	3.7
C[C@@H]1CN([C@H](C)CO)C(=O)c2cc(-c3ccc(F)cc3)cnc2O[C@H]1CN(C)CC1CCCCC1	16.2[16.7 µM]	12.3
N#C[C@H]1[C@@H](c2ccc(-c3ccccc3)cc2)[C@@H](CO)N1C(=O)Cc1ccncc1	4.8[16.7 µM]	-24.4
CC(C)NC(=O)Nc1ccc2c(c1)C(=O)N([C@@H](C)CO)C[C@H](C)[C@@H](CN(C)S(=O)(=O)c1cccs1)OCCCC[C@H](C)O2	-30.1[16.7 µM]	28.8
C[C@@H]1CN([C@@H](C)CO)C(=O)c2cccc(NS(=O)(=O)c3ccc(Cl)cc3)c2O[C@H]1CN(C)Cc1ccc(Cl)c(Cl)c1	-6.4[16.7 µM]	-5.5
O=C(Nc1ccc2c(c1)OCO2)N[C@@H]1CC[C@H](CCNC(=O)C2CC2)O[C@H]1CO	4.5[16.7 µM]	1.2
O=C(C[C@@H]1C=C[C@H](NC(=O)Nc2cc(F)ccc2F)[C@@H](CO)O1)NCCCN1CCOCC1	2.3[16.7 µM]	-4.7
CC(C)C#Cc1cnc2c(c1)C(=O)N([C@@H](C)CO)C[C@@H](C)[C@H](CN(C)C(=O)Nc1cc(F)ccc1F)O2	3.9[16.7 µM]	25.0
C[C@@H]1CN([C@H](C)CO)S(=O)(=O)c2ccc(C#Cc3ccc(F)cc3)cc2O[C@H]1CN(C)C(=O)NC1CCCC1	20.6[16.7 µM]	29.4
C[C@@H]1CCCCO[C@H](CN(C)CC2CCCCC2)[C@@H](C)CN([C@H](C)CO)C(=O)c2cc(NC(=O)Nc3ccccc3)ccc2O1	-2.5[16.7 µM]	24.3
C[C@H]1CN([C@@H](C)CO)C(=O)c2cc(C#CCN(C)C)cnc2O[C@H]1CN(C)C(=O)Cc1ccncc1	-30.6[16.7 µM]	-8.5
CC1(C(=O)NS(=O)(=O)c2ccccc2Cl)CCN1C(=O)CCc1ccc(Cl)cc1Cl (stereo unspecified)	4.2	8.0
N#C[C@H]1[C@H](c2ccc(C#Cc3cccc(F)c3)cc2)[C@@H](CO)N1C(=O)C1CC1	11.5[16.7 µM]	2.8
CN1C(=O)c2cc(NS(C)(=O)=O)ccc2OC[C@H]2O[C@@H](CC(=O)NCc3ccccc3)CC[C@@H]21	22.5[16.7 µM]	20.6
CO[C@H]1CN(C)C(=O)c2cc(NS(=O)(=O)c3ccccc3Cl)ccc2OC[C@@H](C)NC[C@H]1C	-8.1[16.7 µM]	-2.9
C[C@H](CO)N1C[C@H](C)[C@H](CN(C)Cc2ccccc2F)Oc2cc(C#CC3CC3)ccc2S1(=O)=O	16.7[16.7 µM]	0.4
C[C@@H]1CN([C@@H](C)CO)C(=O)Cc2cc(N(C)C)ccc2O[C@@H]1CN(C)Cc1ccccc1	-49.9[16.7 µM]	-9.5
C[C@H]1CN([C@@H](C)CO)C(=O)c2cc(NC(=O)Nc3ccc4c(c3)OCO4)ccc2O[C@H]1CN(C)S(=O)(=O)c1cn(C)cn1	0.9[16.7 µM]	-6.2
O=C(C[C@H]1CC[C@H](NS(=O)(=O)c2ccccc2)[C@H](CO)O1)NCc1ccncn1	2.2[16.7 µM]	-7.9

(cont.)
SMILES	Env fusion inh	Yeast UUG start
C[C@@H]1CCCCO[C@@H](CN(C)CC2CCCCC2)[C@@H](C)CN([C@@H](C)CO)C(=O)c2cc(NC(=O)Nc3ccccc3)ccc2O1	-7.9[16.7 µM]	45.7
C[C@H]1CCCCO[C@@H](CN(C)S(=O)(=O)c2ccc(F)cc2)[C@@H](C)CN([C@@H](C)CO)C(=O)c2cc(NS(=O)(=O)c3ccc(F)cc3)ccc2O1	26.6[16.7 µM]	2.1
C[C@H]1CN([C@@H](C)CO)C(=O)Cc2cc(NS(C)(=O)=O)ccc2O[C@@H]1CN(C)Cc1ccc(C(=O)O)cc1	-42.0[16.7 µM]	-9.1
C[C@@H]1CN([C@H](C)CO)C(=O)Cc2cc(NS(C)(=O)=O)ccc2O[C@H]1CN(C)C(=O)Nc1ccc2c(c1)OCO2	-11.1[16.7 µM]	4.2
C/C=C/c1ccc2c(c1)O[C@H](CN(C)C(=O)CN1CCOCC1)[C@@H](C)CN([C@H](C)CO)S2(=O)=O	-6.2[16.7 µM]	13.5
Cc1noc(C)c1NC(=O)Nc1ccc2c(c1)C(=O)N([C@H](C)CO)C[C@H](C)[C@@H](CN(C)S(=O)(=O)c1ccccc1)OCCCC[C@@H](C)O2	-7.8[16.7 µM]	-5.2
Cc1noc(C)c1NC(=O)N(C)C[C@H]1Oc2ccc(NC(=O)Nc3ccc(C(F)(F)F)cc3)cc2CC(=O)N([C@@H](C)CO)C[C@H]1C	-20.8[16.7 µM]	2.6
C[C@H](CO)N1C[C@H](C)[C@H](CN(C)S(=O)(=O)c2ccc(C#N)cc2)Oc2ncc(C#Cc3ccccc3)cc2C1=O	?	-3.0
CNC(=O)C[C@H]1CC[C@@H]2[C@H](COc3ccc(NC(=O)c4ccccc4F)cc3C(=O)N2C)O1	2.0[16.7 µM]	1.8

Some of the entries so far, with each value named.
C[C@H]1CN([C@@H](C)CO)C(=O)Cc2cc(NS(C)(=O)=O)ccc2O[C@@H]1CN(C)Cc1ccc(C(=O)O)cc1
  Env fusion inh: -42.0[16.7 µM] | Yeast UUG start: -9.1
C/C=C/c1ccc2c(c1)O[C@H](CN(C)C(=O)CN1CCOCC1)[C@@H](C)CN([C@H](C)CO)S2(=O)=O
  Env fusion inh: -6.2[16.7 µM] | Yeast UUG start: 13.5
CNC(=O)C[C@H]1CC[C@@H]2[C@H](COc3ccc(NC(=O)c4ccccc4F)cc3C(=O)N2C)O1
  Env fusion inh: 2.0[16.7 µM] | Yeast UUG start: 1.8
C[C@@H]1CN([C@H](C)CO)C(=O)Cc2cc(NS(C)(=O)=O)ccc2O[C@H]1CN(C)C(=O)Nc1ccc2c(c1)OCO2
  Env fusion inh: -11.1[16.7 µM] | Yeast UUG start: 4.2
